Source: PubChem (Center for Chemical Genomics, University of Michigan)
HIV TAR-Tat = HIV-1 TAR-Tat binding disruption. HIV-1 TAR RNA, Tat peptide displacement FRET; active compounds read high. z-score (concentration not given with the values). 100,000 compounds, 0.6% hits;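 also: score is relative to mean and SD of negative controls; some compounds called inactive have numbers as strong as hits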
CDC25B CDK2 inh = human CDC25B-CDK2/CyclinA binding inhibition; P30305+P24941; HTRF CDC25B-CDK2/CyclinA binding, anti-His/anti-Flag; active compounds read high; z-score (concentration not given with the values); 94,000 compounds, 0.72% hits; AID 1259370;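 also: score is relative to mean and SD of negative controls; strong numbers were not always called active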
The depositor's hits bear a star; x = not tested or not shown.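 The calls were made as follows: active = z-score from 3 up in half or more of its runs; inactive = the rest.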 Rows are unselected. Share with any hit: about 0.97%.

SMILES	HIV TAR-Tat	CDC25B CDK2 inh
CCOc1cccc2c1OC(c1cc(OC)ccc1OC)N1N=C(c3ccco3)CC21 (stereo not drawn)	x	6.4
COc1cccc(NC(=O)Nc2nnc(N3CCCC3)s2)c1	-0.24	-2
Cc1cccc(NC(=O)NC2CCCCC2)n1	-0.57	-1.6
Cc1csc(NC(=O)CSc2nc(=O)n(CCN3CCOCC3)c3c2CCCC3)n1	0.6	x
N/C(=N\O)c1ccncc1	x	-3.4
Cc1cccc(CN2CCc3nc(N4CCN(c5ncccn5)CC4)ncc3C2)c1	0.41	x
CC(C)CN1CC23C=CC(O2)C(C(=O)O)C3C1=O (stereo not drawn)	-0.27	1.7
Cc1ccc(Oc2nc(-c3ccncc3)nc3ccccc23)cc1	2	-1.3
COc1ccc(-c2nc3sc4c(c3c(=O)[nH]2)CCCC4)cc1OC	0.83	-4.7
CC(=O)[C@H]1CCC2C3CC=C4C[C@@H](O)CC[C@]4(C)C3CC[C@@]21C (stereo partly drawn)	-1.3	x
CNC(=O)N(C1=NCC(C)(C)S1)c1ccc(Cl)cc1	x	-0.71
CC(=O)N1c2ccccc2NC2=C(C(=O)CCC2)C1c1ccco1 (stereo not drawn)	x	-1.1
CC1CCc2cc(F)cc3c(O)c(C(=O)NCCN(C)C)c(=O)n1c23 (stereo not drawn)	x	-2.2
CCN(CC)S(=O)(=O)c1cccc(-c2cn3cc(C)ccc3n2)c1	-1.3	-1.7
COc1ccc(Cn2cc(C(=O)c3ccccc3)c(=O)c3cc4c(cc32)OCCO4)cc1	1.1	1.2
O=C(CC1SC(=Nc2ccccc2)NC1=O)NCc1ccccc1 (stereo not drawn)	x	-1.9
COc1cccc(CSc2nc3ccncc3n2Cc2cccc(OC)c2)c1	0.83	-3.3
O=C(CCS(=O)(=O)c1cc2c(cc1Cl)NC(=O)CO2)NCCC1=CCCCC1	1.4	x
O=C(NC1CC1)C1CCCN(c2nnc(-n3cccc3)s2)C1 (stereo not drawn)	0.24	-0.21
O=C(CCCn1ccc2cc(S(=O)(=O)N3CCCC3)ccc21)NCc1ccco1	1.6	x
CCC(CC)C(=O)Nc1c2c(nn1-c1ccc(Cl)cc1)CS(=O)(=O)C2	2	x
COc1ccc(Nc2nc(NCCN3CCCCC3)nc3c2cnn3C)cc1	0.47	x
Cc1nc(Nc2ncc3c(n2)CC(c2ccc(F)cc2)CC3=O)nc2ccccc12 (stereo not drawn)	-1.3	-1.5
OC(CC#CCN1CCCC1)(c1ccccc1)C1CCCCC1 (stereo not drawn)	1.6	-1.5
CCc1ccc2oc(-c3ccco3)c(O)c(=O)c2c1	-7.8	0.33
CC(=O)Nc1nc2ccc(NC(=O)C3CCCCC3)cc2s1	1.4	-1.1
CSc1nsc(SC)c1NC(=O)Nc1ccc(Cl)cc1	x	-2.4
Cc1cc(NC(=O)N2CCC(CN3CC(C)CC(C)C3)CC2)ccc1Br (stereo not drawn)	1.6	x
O=C(c1ccc(-n2ccc3ccccc32)s1)N1CCC(N2CCCCC2)CC1	1.1	x
Cn1cnc2c(=O)oc3ccc(S(=O)(=O)Nc4ccccc4)cc3c21	-0.16	x
CNC(=O)CCCn1nc(C)c2sc3ccccc3c2c1=O	2.2	-1.6
Cn1c(SCC(=O)Nc2nncs2)nnc1-c1cc2ccccc2o1	0.7	x
CCCCOc1ccc(S(=O)(=O)NCCc2sc(C)nc2C)cc1	1.4	x
O=C1c2cccc3cccc(c23)C(=O)N1CCCC(=O)N1CCc2ccccc21	1.4	-1.2
CN1CCN(CCCn2cnc3c([nH]c4ccc(Cl)cc43)c2=O)CC1	-0.62	0.35
Cc1cc2[nH]c(=O)c(=O)[nH]c2cc1S(=O)(=O)N1C(=O)CNc2ccccc21	1.1	x
CCOC(=O)c1cc[n+](CC(=O)c2cc3ccccc3oc2=O)cc1	x	-2.2
CS(=O)(=O)c1ccc2nc(Nc3nc4cc5c(cc4s3)OCCO5)sc2c1	x	-2.1
CCn1cnc2c3nsnc3ccc21	0.33	-0.98
Cc1cc(C)cc(Oc2c(C)oc3c(CN4CCN(C)CC4)c(O)ccc3c2=O)c1	-1.3	-0.06
COc1cc(/C=C2/SC(=S)N(CCC(=O)NC3=NCCS3)C2=O)cc(OC)c1OC	x	-2.6
CSc1ccc(C2CC(=O)N3CN(C)CSC3=C2C#N)cc1 (stereo not drawn)	0.89	0.34
O=C(CSC1=NCCCN1)NN(Cc1c(F)cccc1Cl)c1ccccc1	x	-1.6
CCc1ccccc1NC(=O)C1CC2CCCN2C12C(=O)Nc1ccccc12 (stereo not drawn)	1.1	x
CCN(CC)S(=O)(=O)c1ccc2c(c1)N(CC(=O)N1C(C)CCCC1C)C(=O)CS2 (stereo not drawn)	0.7	-1.4

Reformatted as labelled records: part of the list above
CCCCOc1ccc(S(=O)(=O)NCCc2sc(C)nc2C)cc1
  HIV TAR-Tat: 1.4 | CDC25B CDK2 inh: x

O=C1c2cccc3cccc(c23)C(=O)N1CCCC(=O)N1CCc2ccccc21
  HIV TAR-Tat: 1.4 | CDC25B CDK2 inh: -1.2

An excerpt from above in order of SMILES length, largest number first.
SMILES	HIV TAR-Tat	CDC25B CDK2 inh
CCN(CC)S(=O)(=O)c1ccc2c(c1)N(CC(=O)N1C(C)CCCC1C)C(=O)CS2 (stereo not drawn)	0.7	-1.4
COc1cc(/C=C2/SC(=S)N(CCC(=O)NC3=NCCS3)C2=O)cc(OC)c1OC	x	-2.6
Cc1cc(C)cc(Oc2c(C)oc3c(CN4CCN(C)CC4)c(O)ccc3c2=O)c1	-1.3	-0.06
O=C1c2cccc3cccc(c23)C(=O)N1CCCC(=O)N1CCc2ccccc21	1.4	-1.2
CS(=O)(=O)c1ccc2nc(Nc3nc4cc5c(cc4s3)OCCO5)sc2c1	x	-2.1
O=C(c1ccc(-n2ccc3ccccc32)s1)N1CCC(N2CCCCC2)CC1	1.1	x
CN1CCN(CCCn2cnc3c([nH]c4ccc(Cl)cc43)c2=O)CC1	-0.62	0.35
CCOC(=O)c1cc[n+](CC(=O)c2cc3ccccc3oc2=O)cc1	x	-2.2
O=C(CSC1=NCCCN1)NN(Cc1c(F)cccc1Cl)c1ccccc1	x	-1.6
Cn1c(SCC(=O)Nc2nncs2)nnc1-c1cc2ccccc2o1	0.7	x
CCCCOc1ccc(S(=O)(=O)NCCc2sc(C)nc2C)cc1	1.4	x
CSc1ccc(C2CC(=O)N3CN(C)CSC3=C2C#N)cc1 (stereo not drawn)	0.89	0.34
CNC(=O)CCCn1nc(C)c2sc3ccccc3c2c1=O	2.2	-1.6
CSc1nsc(SC)c1NC(=O)Nc1ccc(Cl)cc1	x	-2.4
CCn1cnc2c3nsnc3ccc21	0.33	-0.98

The list continues.
SMILES	HIV TAR-Tat	CDC25B CDK2 inh
COc1ccc(-c2nnc(SCC(=O)N3CCCC3)o2)cc1OC	3	-0.29
Cc1c(C(=O)NC(C)CCc2ccco2)sc2nc3n(c(=O)c12)CCCC3 (stereo not drawn)	2.5	x
CCOC(=O)c1noc2nc(C)nc(NCCC(C)C)c12	0.18	x
COc1cc(NC(=O)c2noc(C)c2[N+](=O)[O-])c(OC)cc1Cl	0.02	-1.2
CCOC(=O)c1c(NC(=O)CCC(=O)OC)sc2c1CCCC2	1	-0.94
CCCOc1ccc(C2c3c(-c4ccccc4O)n[nH]c3C(=O)N2CC2CCCO2)cc1OCC (stereo not drawn)	0.86	0.45
O=C(CCc1nnc2ccc(N3CCOCC3)nn12)NCC1CCN(C2CCCC2)C1 (stereo not drawn)	-0.52	x
CCOC(=O)c1ccc(N2C(=O)c3n[nH]c(C)c3C2c2cccnc2)cc1 (stereo not drawn)	1.1	x
CCc1nnc(SCC(=O)Nc2ccc(Cl)cc2F)c2cc3sc(C)cc3n12	0.86	x
CCOC(=O)c1c(C)oc2nc(C)nc(NCCN3CCN(C)CC3)c12	-0.27	x
CN(CCO)CC(O)Cn1cnc2c1c(=O)n(C)c(=O)n2C (stereo not drawn) (tested in a mixture with another compound)	1.9	x
Cc1ccc(C(=O)N2CCCC2)cc1NC(=O)C1=CSCCO1	3.1	x
CC(=O)O[C@@H]1CC2C(C)(C)CCC[C@]2(C)C2CC[C@]3(C)C(=CC(=O)O[C@H]3c3ccoc3)[C@@]21C (stereo partly drawn)	1.1	x
CC(=O)Nc1nc(-c2cc3ccccc3oc2=O)c(C)s1	x	-2.2
Cc1cc(S(=O)(=O)[C@H]2CS(=O)(=O)C[C@@H]2NCc2ccccn2)ccc1F	-1.3	0.19
CCOC(=O)c1cc(-c2ccc(S(=O)(=O)NCc3cccs3)s2)on1	1.2	x
C=C[C@@H](O)C1O[C@H]1/C=C/[C@@H]1O[C@H]1[C@@H](C)O (stereo partly drawn)	1.8	x
COc1ccc(S(=O)(=O)[C@H]2CS(=O)(=O)C[C@@H]2N2CCC(C)CC2)cc1	1	-2.1
CC1(C)CC(=O)C2=C(C1)Nc1ccccc1NC2c1cccs1 (stereo not drawn)	-12	0.01
Cc1ccc(C)c(S(=O)(=O)N(CCS(=O)(=O)N2CCNCC2)CC(C)c2ccccc2)c1 (stereo not drawn)	0.92	x
Nc1nc2sc3c(c2cc1C(=O)NCC(=O)O)CCCC3	0.3	-0.22
Cc1ccc2nc(C3=C(O)CN(c4ccc(N(C)C)cc4)C3=N)[nH]c2c1	2	-2.8
CCNC(=O)c1c(NC(=O)c2cc(=O)c3cc(Cl)ccc3o2)sc2c1CCCC2	0.72	0.34
Cc1ccc2c(n1)sc1c(=O)n(-c3ccc(Cl)cc3)nnc12	-1.2	-1.3
CC(=O)c1ccc(C#CCOC(=O)c2ccc(C(F)(F)F)cc2)s1	x	-1.6
Cc1nc2ccccc2c(=O)n1CCCn1ccnc1	1	-0.22
Cn1c(C(=O)NCc2cccs2)cc2c(=O)[nH]c3ccccc3c21	x	-1
CC(C)CN(CC(C)C)C(=O)C1c2ccccc2Oc2ccccc21	x	-0.64
Cn1c(=O)c2c(-c3cccc(Br)c3)n(Cc3ccco3)cc2n(C)c1=O	2	1
Cc1nn(S(C)(=O)=O)c(C)c1S(=O)(=O)N1CCOCC1	-0.74	x
O=c1ccc(-c2ccc(S(=O)(=O)NCCC3=CCCCC3)s2)n[nH]1	0.42	x
COc1cc(OC)c(N(C)C(=O)c2cn(C3CCCC3)c(=O)c3c2c2ccccc2n3C)cc1Cl	-0.11	0.45
O=C1CC(N2CCN(CCO)CC2)C(=O)N1c1ccc(Cl)cc1 (stereo not drawn)	0.31	-0.51
Cc1ccc(-n2ncc3c(N4CCOCC4)ncnc32)cc1	0.89	x
O=C1CC(NCCc2c[nH]c3ccc(Cl)cc23)C(=O)N1c1cccc2ccccc12 (stereo not drawn)	0.66	-1.5
O=C(/C=C/c1cccs1)Oc1c(Cl)cccc1Cl	x	1
NC(=O)C1CCN(C(=O)c2ccc(Cn3c(=O)c4cccn4c4cccnc43)cc2)CC1	-0.62	x
CCOC(=O)CCc1ccc2c(c1)NC(c1ccc([N+](=O)[O-])s1)O2 (stereo not drawn)	x	-0.75
CCOC(=O)c1c(NC(=O)CSc2nnc3ccccn23)sc2c1CCCCC2	x	-0.46
NC(=O)c1cnc2sc3c(n2c1=O)CCCC3	1.9	-0.99
CCC(=O)N1c2ccc(S(=O)(=O)NC3CCCC3)cc2CC1C (stereo not drawn)	-0.51	x
CC(C)c1nnc2sc(COc3ccc(Cl)cc3)nn12	-0.48	-0.25
COc1cccc(-c2noc(NCc3cccs3)n2)c1OC	-0.26	x
O=c1c2sccc2n(Cc2cc(=O)n3ccccc3n2)c(=O)n1-c1cc(F)ccc1F	x	-0.79
COc1ccc(OCC(O)Cn2c(NC3CCCCC3)nc3c2c(=O)n(C)c(=O)n3C)cc1 (stereo not drawn)	-0.4	-0.73
O=C(NCCS(=O)(=O)Cc1ccc(F)cc1)c1cccc(OC(F)(F)F)c1	x	0.5
COC(=O)Cn1c2ccccc2c2nc(=O)cc(C)n21	1	0.28
c1nc(N2CCOCC2)c2c3c(sc2n1)CCCC3	1.1	0.14
O=C1NC(c2ccccc2)c2c1n[nH]c2-c1cccs1 (stereo not drawn)	-1.2	8.6
CCN(CCN1C(=O)CCC1=O)c1cccc(NC(C)=O)c1	x	-3
Cc1ccc2c(c1)C(O)(CC(=O)c1ccc(Cl)cc1)C(=O)N2 (stereo not drawn)	-1.4	-1.3
CN(C)c1ccc(C2Nc3ccccc3NC3=C2C(=O)CC(c2cccs2)C3)cc1 (stereo not drawn)	0.13	7.4*
COC(=O)c1cc(-c2ccccc2)c(N2CCCC2)s1	0.57	-1.2
O=C(CSc1nnc(N2CCOCC2)c2ccccc12)Nc1cc(F)ccc1F	1.5	-1.2
CC1=C(c2ccc(C)c(C)c2)S(=O)(=O)N=C1N1CCC(C(=O)N2CCOCC2)CC1	1.2	x
CCOC(=O)C1CCCN(c2c(NCCCN3CCN(C)CC3)c(=O)c2=O)C1 (stereo not drawn)	0.42	-1.1
CC(C)c1nn2c(=O)c(NC(=O)c3ccc(C(C)(C)C)cc3)cnc2s1	0.75	-0.26
C=CCn1nnc2sc3c(c2c1=O)CCCC3	-0.97	0.75
COc1nc(OCCNC(=O)Nc2ccc(Cl)cc2)nc(N(C)C)n1	0.89	0.2
FC(F)(F)c1cc(-c2cccs2)c2nncn2n1	-2	-1

(further entries)
SMILES	HIV TAR-Tat	CDC25B CDK2 inh
COc1cc(CNc2nc3nc4c(c(=O)n3[nH]2)CCC4)ccc1OC(C)C	0.74	-0.34
O=C(C1CC1)N1CCc2cc(Br)cc(S(=O)(=O)NCCCN3CCCCCC3)c21	x	0.92
CCn1cc(C2=NOC(C(=O)Nc3cc(OC)c(Cl)cc3OC)C2)c(C)n1 (stereo not drawn)	2.5	-1.2
COc1ccc(-c2n[nH]c3c2C(c2cccnc2)N(c2ccc(Br)cc2)C3=O)cc1 (stereo not drawn)	x	-2
Oc1ccc2c(c1)O[C@H](c1ccc(O)c(O)c1)[C@@H](O)C2	3.1	x
CCC(C(=O)NC1CCCC1)n1sc2ccccc2c1=O (stereo not drawn)	1.7	-1.7
CC(C)CNC(=O)C1CC(c2ccccc2)=NO1 (stereo not drawn)	x	-0.67
CN(C(=O)CSc1cn(CC(=O)N2CCOCC2)c2ccccc12)c1ccccc1	-0.02	x
